Bioassay records (PubChem)
Sfp PPTase inh: inhibitors of Bacillus subtilis Sfp phosphopantetheinyl transferase | Q9F4F7 | Biochemical Sfp PPTase activity, qHTS | Potency, µM, for inactives: max response, negative = inhibition, actives largely listed as inhibitors | 3.5% of 310,000 active; active means well fitted inhibition curve with a large enough effect; inconclusive means small, poorly fitted or top-dose-only effect, or another doubt; inactive means no such curve, though single readings can be large or run the other way;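 further: the enzyme is Sfp with the accession as filed and its product quenches rhodamine fluorescence; potency means the concentration at half of the fitted maximal effect; 0% = enzyme reaction without inhibitor and -100% = no enzyme wells; top concentration of the series not given in the record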
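Fluorescence-quenching assay with 15 nM Sfp, 5 uM rhodamine-CoA and 12.5 uM BHQ-2-labelled ybbR peptide in pH 7.6 Hepes/MgCl2 buffer. Enzyme was pre-incubated with compound for 15 min at room temperature. Rate was taken from the 30-min fluorescence change (525/598 nm).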
D2 ag: agonists of human D2 dopamine receptor (beta-arrestin); P14416; DiscoveRx PathHunter D2 beta-arrestin, luminescence, 90 min; 100% = 57 uM dopamine signal; activation, % (no concentration beside the values); 0.084% of 360,000 active; in the data active = activation above about 40%; inconclusive = about 15% to 40%; inactive = below about 15%; further: compound concentration not given in the record; the text of the record calls up to 30% inactive
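Agonist mode: compounds alone added to overnight-plated D2 PathHunter cells for 90 min at 37 C, with 57 uM final dopamine (EC100) defining full response. Beta-arrestin recruitment detected by chemiluminescent reagent, read after 1 h at ambient temperature.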
D2 PAM: positive allosteric modulators of human D2 dopamine receptor. P14416. DiscoveRx D2 beta-arrestin cells, luminescence, 90 min; 100% = 57 uM dopamine signal. potentiation, % (concentration not given with the values). 0.23% of 360,000 active. AID 624464; active = potentiation of 50% or more; inconclusive = 30% to 50%; inactive = 30% or less;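 further: compound concentration not given in the record; tested on top of an EC20 dose of dopamine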
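PathHunter beta-arrestin assay in DiscoveRx D2 cells. Compounds were added with an EC20 of dopamine (50 nM final) for 90 min at 37 deg C. Luminescence was read 1 h after detection reagent, with 57 uM dopamine as the EC100 control.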
TRPV1 potentiator: enhances activation of the human vanilloid receptor TRPV1 | TRPV1-expressing cells, Fluo-8 calcium influx, capsaicin EC20 potentiation; host cell line not named in the record; control for the full effect not named in the record | AID 540277 | potentiation, % at 8.33 µM | 0.02% of 320,000 active | Q8NER1; active means potentiation above 80%; inconclusive means 30% to 80%; inactive means below 30%; further: 0% is about no effect
Target sequence (Q8NER1 whole entry, looked up): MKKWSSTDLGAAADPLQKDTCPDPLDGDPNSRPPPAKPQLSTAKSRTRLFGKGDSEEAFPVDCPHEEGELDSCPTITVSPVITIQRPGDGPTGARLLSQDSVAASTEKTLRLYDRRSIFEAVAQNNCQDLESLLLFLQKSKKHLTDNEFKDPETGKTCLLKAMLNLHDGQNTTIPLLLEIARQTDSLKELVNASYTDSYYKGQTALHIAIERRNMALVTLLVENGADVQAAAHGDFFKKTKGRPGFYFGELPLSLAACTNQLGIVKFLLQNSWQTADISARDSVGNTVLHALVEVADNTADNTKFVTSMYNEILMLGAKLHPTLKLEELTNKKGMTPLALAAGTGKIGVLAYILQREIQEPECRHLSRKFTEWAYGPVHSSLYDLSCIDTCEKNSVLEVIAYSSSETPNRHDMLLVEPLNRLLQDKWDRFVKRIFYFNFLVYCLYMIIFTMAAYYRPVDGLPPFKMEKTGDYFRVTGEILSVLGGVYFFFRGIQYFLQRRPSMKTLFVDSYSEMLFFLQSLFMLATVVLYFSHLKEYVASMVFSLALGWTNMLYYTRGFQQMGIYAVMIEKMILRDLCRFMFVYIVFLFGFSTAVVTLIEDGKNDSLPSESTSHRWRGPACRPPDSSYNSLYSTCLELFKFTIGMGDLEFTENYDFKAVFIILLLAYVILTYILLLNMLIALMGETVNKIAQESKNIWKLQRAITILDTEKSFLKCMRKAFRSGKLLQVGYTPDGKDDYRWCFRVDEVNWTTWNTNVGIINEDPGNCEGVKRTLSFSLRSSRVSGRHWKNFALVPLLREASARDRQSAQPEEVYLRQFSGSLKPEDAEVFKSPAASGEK
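TRPV1-expressing cells were cultured overnight at 35.5C and loaded with Fluo-8 calcium dye for 40 to 90 min at room temperature. After a 10 s baseline, compound was added and calcium influx was read kinetically for 3 min (ex 480/em 520 nm).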
PINK1 expr mod: changes PINK1 expression. PINK1 immunofluorescence, high-content cytometry, 24 h. Potency, µM (top dose mostly 76.6 µM), without a hit: at the top dose activation (PINK1 increase), actives largely listed as activators. 0.2% of 410,000 active; active = well fitted activation curve with a large enough effect; inconclusive = small, poorly fitted or top-dose-only effect; inactive = flat fitted curve, though single readings scatter; cell line not stated here;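 further: potency means the concentration at half of the fitted maximal effect; % of control where 0% means no effect; nearly all actives have a fitted effect of over 65% in size; a mitochondrial uncoupler was the plate control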
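PINK1 protein, normally rapidly degraded, was detected by immunofluorescence after 24 hour compound treatment of a stable cell line. Titration data (5 concentrations) came from laser-scanning cytometry, with CCCP-treated wells as controls.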
CtBP-E1A blk: inhibitors of CtBP/E1A interaction; AlphaScreen GST-E1A/His-CtBP binding, 1536-well; hits give low values; control for the full effect not named in the record; activity change, % (no concentration beside the values); 0.49% of 340,000 active; in the data active means activity change below about -65%; inconclusive means about -30% to -65%; inactive means above about -30%; further: on the % scale 0 is the no-effect control and ±100 the full control effect; compound concentration not given in the record
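In 5 uL wells, 23 nL compound meets equimolar GST-E1A and His-CtBP (5X stock 125 nM each) for 2 h, 37 °C. Beads (5X, 50 ug/mL) then 1 h, 37 °C, dark.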
Six1-Eya2 inh: inhibitors of human Six1/Eya2 interaction | Q15475+O00167 | AlphaScreen GST-Six1/His-Eya2 binding, biochemical; hits give low values; control for the full effect not named in the record | activity change, % (concentration not given with the values) | 0.56% of 360,000 active | AID 651725; in the data active = activity change below about -65%; inconclusive = about -30% to -65%; inactive = above about -30%; further: on the % scale 0 is the no-effect control and ±100 the full control effect
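Compounds are tested against tagged Six1 and Eya2 proteins bridged by glutathione donor and nickel acceptor beads; after a one-hour incubation at 37 °C without light, AlphaScreen emission is recorded.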
Numbers without * were called inactive; ? = inconclusive; . = no result given; & = joins results of further samples; [ ] = remark or other dose.

SMILES | Sfp PPTase inh | D2 ag | D2 PAM | TRPV1 potentiator | PINK1 expr mod | CtBP-E1A blk | Six1-Eya2 inh
O=C(Nc1nnc(S(=O)(=O)N2CCCC2)s1)c1cccc([N+](=O)[O-])c1 | 15% | 1.7 | -4 | 0 | 0.3% | -2 | -4
S=C(Nc1ccc(Cl)cc1)Nc1cccc2cnccc12 | ? | -1.0 | -3 | 0 | ? | -6 | -23
CCCCNS(=O)(=O)c1ccc2nc(-c3cccnc3)cc(C(=O)NCC(OC)OC)c2c1 | 8% | 9.5 | 0 | -6 | 9.7% | . | 18
N#Cc1ccc(Sc2ccccn2)c([N+](=O)[O-])c1 | 26% | 3.7 | 3 | -3 | -0.6% | 2 | -1
CCCC1NC(=O)c2cc3ccccc3cc2-n2c1nc1ccc(C)cc1c2=O (stereo unspecified) | . | -6.9 | 0 | . | 4.4% | -6 | 4
CCS(=O)(=O)N1CCN=C1SCc1ccc(F)cc1 | 2% | -2.1 | 0 | 6 | 4.7% | . | 6
Cc1cccc(NC(=O)c2c(C)cc(=O)oc2C)n1 | 11% | 1.3 | -4 | -15 | 1.6%[38.3 µM] | 10 | -2
CCOc1ccc(N(C(=O)CNS(=O)(=O)c2ccccc2)C(CC)C(=O)NCc2ccco2)cc1 (stereo unspecified) | 13% | -0.9 | -12 | 9 | 0.7% | -23 | -9
CCOC(=O)N1CCC(Nc2c(NCCCN3CCN(c4ccc(OC)cc4)CC3)c(=O)c2=O)CC1 | 18% | -7.5 | -17 | -21 | 0.6% | . | -8
O=C1Nc2ccccc2C12OC1CCCCC1O2 (stereo unspecified) | -9% | -1.0 | -25 | 3 | . | 8 | 2
Cc1cc(=O)oc2c(CN3CCN(CCO)CC3)c(O)ccc12 | 3% | -4.0 | -6 | 7 | -0.4% | 12 | 0
O=C(COc1ccc2c(c1)CCC2)NCc1ccc(Cl)cc1 | -10% | -2.7 | -3 | -11 | 0.3% | 14 | 6
CCCCn1c(N)c(N(CC(C)C)C(=O)c2ccco2)c(=O)[nH]c1=O | . | 9.6 | -4 | ? | 6.3% | 2 | 2
Cc1cccc2cc(C#N)c(SCCN3CCCCC3)nc12 | . | -2.5 | -12 | . | -1.1% | -28 | -27
CCc1nc2c(OCc3ccc(Cl)cc3)cccn2c1N(C)C(=O)c1ccc2c(c1)OCO2 | . | -4.5 | -9 | . | 0.8% | -3 | -5
Cc1cccc(Cc2nnc(CCC(=O)N(C)CCc3ccccc3)o2)c1 | 4% | 2.4 | -8 | -5 | 0.6% | 5 | 0
Cc1c(C(c2ccccc2Br)c2c(C)n(C)n(-c3ccccc3)c2=O)c(=O)n(-c2ccccc2)n1C | 23% | -7.2 | -11 | -4 | 0.1% | 0 | 5
Cc1cc(-c2ccc(C)c(S(=O)(=O)NCCN3CCC(C)CC3)c2)on1 | 11% | -2.1 | -32 | -10 | 0.5% | 0 | -5
OCC[C@@H]1C[C@H](O)[C@@H](O)[C@]2(CCCCO2)O1 | . | 0.7 | -5 | . | 0.9% | 0 | 16
CN(C)CCNC(=O)/C=C/c1cn(-c2ccccc2)nc1-c1cc2ccccc2oc1=O | 0% | -4.6 | -2 | 5 | 3.7% | 0 | 2
CSCC[C@H](NC(=O)CCNC(C)=O)c1nc2ccccc2[nH]1 | 3% | 0.4 | -21 | -2 | -1.4% | 9 | 5
Fc1ccc(C2C3=C(Nc4ncnn42)c2ccccc2OC3c2ccncc2)cc1 (stereo unspecified) | 12% | -2.7 | 25 | -22 | -0.1% | -1 | -6
CC(NC(=O)C1C2C=CC(C2)C1C(=O)O)c1ccccc1 (stereo unspecified) | -16% | 0.2 | -13 | 0 | 0.7% | 5 | 2
COC(=O)[C@H](CC(C)C)NC(=O)NC1CCCCC1C (stereo partly specified) | 3% | 1.0 | -4 | 5 | -2.1%[38.3 µM] | 5 | 3
COc1ccc(OC)c(NC(=O)CSc2ccc(-c3ccco3)nn2)c1 | 14µM* | 1.8 | 2 | 4 | -0.5% | -18 | -13
The list continues.
SMILES | Sfp PPTase inh | D2 ag | D2 PAM | TRPV1 potentiator | PINK1 expr mod | CtBP-E1A blk | Six1-Eya2 inh
N#C/C(=C\Nc1ccc(Cl)cn1)S(=O)(=O)c1ccccc1 | 3% | -4.5 | -2 | 11 | 0.1% | 0 | -12
COc1cccc(C(=O)CC(=O)C(=O)Nc2cccc([N+](=O)[O-])c2C)c1 | 3% | 2.7 | -6 | 22 | 8.5% | -4 | -1
O=C(COC(=O)Cn1cnc2ccccc21)Nc1ccc2c(c1)C(=O)c1ccccc1C2=O | -21% | 0.4 | -2 | 6 | -1.3% | . | -29
CN(CC(=O)Nc1ccc(OC(F)(F)F)cc1)C(=O)/C=C/c1cc2c(cc1[N+](=O)[O-])OCO2 | . | -3.3 | -5 | -4 | -1.0% | -9 | -4
Cc1ccc(C)c(N2CN(CCC3=CCCCC3)CNC2=S)c1 | 4% | -2.8 | -18 | -12 | 5.3% | -1 | -13
CCOc1ccc(NC(=O)CNC(=O)c2nn(-c3ccc(OC)c(OC)c3)c(=O)c3ccccc23)cc1 | -13% | 4.3 | 5 | 2 | 0.5% | 8 | -16
Cc1ccc2nc(N/N=C/c3ccccc3F)nc(-c3ccccc3)c2c1 | ? | -3.5 | -22 | -4 | 2.9% | 20 | -2
Cc1c(Cl)c(=O)n2c(=O)c(Cl)c(C)n12 | 18% | -2.6 | -3 | -6 | 0.3% | -1 | 3
COc1cccc(OC)c1C(=O)NNS(=O)(=O)c1ccc2ccccc2c1 | 9% | -5.0 | -7 | 10 | -0.6% | -1 | 9
CN(CC(=O)NCc1cccnc1)S(=O)(=O)c1ccccc1 | 9% | -9.7 | -6 | 4 | 0.3% | -2 | -13
CC(=O)Nc1ccc(-c2nnc(SCC(=O)Nc3ccc4c(c3)oc3ccccc34)n2C)cc1 | -3% | -1.2 | 1 | -1 | 3.6% | -8 | 0
CCOC(=O)/C(=N/Nc1ccccc1OC)N1CCCc2ccccc21 | 3% | 3.1 | 2 | -3 | 1.9% | -1 | -3
CC1(C)C(=O)Nc2ccccc2N1C(=O)CSc1nc(-c2ccccc2)cs1 | ? | 1.3 | 4 | 1 | 5.2% | 4 | -10
CN(C)c1cc(-c2ccc(Cl)c(Cl)c2)oc(=O)c1Cl | 10% | -6.7 | 3 | 11 | 3.7% | . | -2
COc1ccc(C2CCc3cc(OC)c(OC)cc3C2NC=O)cc1OC (stereo unspecified) | . | -1.2 | -1 | . | 5.2% | -7 | -20
Cc1cc(C(=O)OCC(=O)Nc2ccc(F)cc2F)c(C)o1 | 14% | -3.8 | -21 | -9 | -0.7% | -1 | -4
O=C(COC(=O)c1ccc(NS(=O)(=O)c2cccs2)cc1)NCc1ccco1 | 35µM* | 0.7 | -9 | 7 | 4.4% | -17 | ?
CC(C)CNS(=O)(=O)c1ccc(CC(C)C)cc1 | 12% | -1.4 | -6 | 5 | 12% | 8 | -2
CCCN(CCC)CCCNC(=O)c1cc2c(=O)n(CC)c3ccccc3c2s1 | 7% | -2.5 | -12 | 2 | 3.3% | -7 | 7
O=C1C=C(c2ccccc2)C[C@H](c2cccs2)[C@H]1n1cnc([N+](=O)[O-])c1 | -12% | -0.9 | 6 | 0 | 1.4% | -1 | -1
CCN(CCn1cccn1)C(=O)CCc1nnc(Cc2c[nH]c3ccccc23)o1 | 21% | 5.6 | -4 | 0 | 1.7% | . | 7
CCc1noc(C)c1C(=O)NNC(=O)c1cc(OC)cc(OC)c1 | . | -0.2 | -1 | 11 | 1.9% | 3 | 1
CCc1cccc(OCC2Cn3c(nc4c3c(=O)[nH]c(=O)n4C)O2)c1 (stereo unspecified) | -3% | 4.4 | 0 | 2 | -0.6% | 8 | 4
Cc1ccccc1C(=O)N/N=C/c1cccc2ccccc12 | 7% | -5.8 | -12 | 17 | 8.9% | 7 | 7
CC(C)N(CCc1ccncc1)C(=S)Nc1ccc(F)c(Cl)c1 | 5% | 1.0 | -4 | 10 | 4.7% | 4 | -3

Entries of single compounds, looked up by structure:
Cc1cc(C(=O)OCC(=O)Nc2ccc(F)cc2F)c(C)o1 in the list: Sfp PPTase inh: 14%; D2 ag: -3.8; D2 PAM: -21; TRPV1 potentiator: -9; PINK1 expr mod: -0.7%; CtBP-E1A blk: -1; Six1-Eya2 inh: -4
O=C(COC(=O)c1ccc(NS(=O)(=O)c2cccs2)cc1)NCc1ccco1 in the list: Sfp PPTase inh: 35µM*; D2 ag: 0.7; D2 PAM: -9; TRPV1 potentiator: 7; PINK1 expr mod: 4.4%; CtBP-E1A blk: -17; Six1-Eya2 inh: ?

Next records follow:
SMILES | Sfp PPTase inh | D2 ag | D2 PAM | TRPV1 potentiator | PINK1 expr mod | CtBP-E1A blk | Six1-Eya2 inh
COc1ccc(CC(=O)NC2CCN(CC(=O)Nc3ccc4c(c3)OCCO4)CC2)cc1OC | 3% | 1.0 | 0 | 8 | 1.9%[38.3 µM] | -1 | 0
COc1ccc(CCNC(=O)COc2ccccc2[N+](=O)[O-])cc1OC | 0% | -0.9 | -2 | 11 | -1.5% | 0 | -9
CCOC(=O)c1cnc2c(C)cccc2c1NCCc1ccc(OC)c(OC)c1 | -12% | -1.8 | -6 | 18 | 0.4%&0.0% | 12 | 8
CC1(C(=O)NC2CCCCCCC2)CCC(=O)N1CCN1CCOCC1 (stereo unspecified) | 22% | 0.2 | -5 | -2 | 6.5%[38.3 µM] | 11 | 8
CCC(Sc1nc2ccsc2c(=O)n1CCC(=O)O)C(=O)Nc1ccc(Cl)cc1 (stereo unspecified) | . | -2.6 | -10 | . | 0.3% | 0 | -3
CC(=O)NC(Cc1ccccc1)C(=O)NC1CCN(C(=O)NC2CCCCC2)CC1 (stereo unspecified) | -17% | 1.2 | -2 | 5 | 30%[38.3 µM] | 21 | 6
CC(C)c1c(O)nc(SCC(=O)N2CCOCC2)[nH]c1=O | 7% | -0.2 | -1 | 26 | 1.1%[38.3 µM] | 0 | 3
O=C(NCC1CCCO1)c1coc2nc3ccccc3nc12 (stereo unspecified) | -23% | -2.1 | 11 | -21 | 5.0% | 4 | -7
c1ccc(-c2onc(-c3ccco3)c2-c2ccc3c(c2)OCO3)cc1 | -24% | -0.1 | -12 | 4 | 17% | 0 | 24
Oc1ccccc1/C=N/n1cnn(Cc2ccccc2Cl)c1=S | ? | 3.2 | 1 | 5 | 1.0% | . | -4
Cc1ccc(NC2c3ncccc3C(=O)N2c2ccccc2C)cc1C (stereo unspecified) | 45µM* | 0.1 | -10 | 18 | 4.1% | 16 | -12
CCN(CC)C(=O)C1=C(C)N(CCCOC)C(=O)C(CC(=O)NCC2CCCCC2)C1 (stereo unspecified) | . | -7.6 | 3 | . | 0.7% | 7 | 6
